# RE007 growth inh: qHTS Assay for Inhibitors of the HIV-1 protein Vpr | S. pombe RE007 Vpr strain, BacTiter-Glo ATP luminescence, 24 h; control for the full effect not named in the record | Potency, µM (top dose mostly 92.2 µM), without a hit: at the highest dose activity change, negative = less growth | hit rate 0.21% among 360,000; active = well fitted falling curve with a large enough effect; inconclusive = small, poorly fitted or top-dose-only effect; inactive = no such curve, though single readings can be large or run the other way;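 also: % is scaled to controls: 0 for no effect and ±100 for the full control effect; nearly all actives have a fitted effect of over 50% in size; the assay follows cell death caused by Vpr and the record does not say whether a fall means rescue or toxicity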
#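 Fission yeast RE007 carrying one integrated HIV-1 vpr copy, seeded at OD 0.01 in PMG+AL medium with 23 nL pinned compound. Grown 24 h at 30 degrees; viability read by BacTiter-Glo luminescence after 5 min.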
# StopGo reporter: High Throughput Screening for Foot and Mouth Disease Virus Antivirals. human cells with a luciferase reporter of 2A StopGo recoding; control for the full effect not named in the record. Potency, µM (series often up to 57.9 µM), inactives show at the highest dose signal change, negative = less light. hit rate 1.2% among 410,000. AID 1159524, 2015; active = well fitted falling curve with a large enough effect; inconclusive = small, poorly fitted or top-dose-only effect; inactive = no such curve, though single readings can be large or run the other way; tested in HEK293T cells; also: % is scaled to controls: 0 for no effect and ±100 for the full control effect; nearly all actives have a fitted effect of over 45% in size; luciferase light after 4 h
# Cruzain Triton: qHTS Assay for Promiscuous and Specific Inhibitors of Cruzain (with detergent) | Cruzipain (Trypanosoma cruzi), P25779 | purified cruzain, Z-FR-AMC fluorescence, 0.01% Triton | Potency, µM, for the others: max response, negative = inhibition, most hits filed as inhibitors | hit rate 0.43% among 200,000;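 also: plate controls were neutral wells for no effect and buffer without enzyme for full effect; nearly all actives have a fitted effect of over 40% in size; top concentration of the series not given in the record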
# Target sequence (P25779 123-467 limits assumed): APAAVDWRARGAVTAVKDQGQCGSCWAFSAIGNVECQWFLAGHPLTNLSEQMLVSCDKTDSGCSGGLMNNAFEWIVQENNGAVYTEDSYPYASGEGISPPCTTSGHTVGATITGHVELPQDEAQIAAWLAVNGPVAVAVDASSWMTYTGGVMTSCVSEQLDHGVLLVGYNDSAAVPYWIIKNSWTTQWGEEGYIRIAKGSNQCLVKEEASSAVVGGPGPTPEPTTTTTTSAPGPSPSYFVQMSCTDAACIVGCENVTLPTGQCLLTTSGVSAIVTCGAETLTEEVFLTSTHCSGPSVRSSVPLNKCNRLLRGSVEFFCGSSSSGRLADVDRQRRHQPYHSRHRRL
#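 Enzyme 1.5 nM, Z-FR-AMC 2 uM, NaOAc 100 mM pH 5.5, DTT 5 mM, Triton X-100 0.01%; 15 min RT compound preincubation; kinetic ex360/em450, 60 s delta.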
# SARS PLpro yeast: qHTS of Yeast-based Assay for SARS-CoV PLP. S. cerevisiae expressing SARS-CoV PLpro, growth rescue; control for the full effect not named in the record. Potency, µM (highest dose often 32.9 µM), inactives show top-dose activity, positive = growth rescue. hit rate 0.19% among 330,000. AID 485353, 2010; active means well fitted rising curve with a large enough effect; inconclusive means small, poorly fitted or top-dose-only effect; inactive means no such curve, though single readings can be large or run the other way; also: 0% is about no effect; nearly all actives have a fitted effect of over 55% in size; growth read by luminescence after 48 h
# Marburg entry inh: qHTS for inhibitors of binding or entry into cells for Marburg Virus; Marburg virus pseudotyped entry inhibition, cell reporter; control for the full effect not named in the record; about a third of the inactives were read at about 46 µM; Potency, µM (series often up to 37.8 µM), for the others: at the top dose activity change, negative = inhibition, hits mostly inhibitors; hit rate 1.8% among 300,000; active = well fitted inhibition curve with a large enough effect; inconclusive = small, poorly fitted or top-dose-only effect, or effect the other way; inactive = flat fitted curve, though single readings scatter; tested in HEK293 cells; about a fifth of its hits are not listed in these tables; also: % is scaled to controls: 0 for no effect and ±100 for the full control effect; luciferase read-out
# NS1 function inh: qHTS Assay for Inhibitors of Influenza NS1 Protein Function; Potency, µM (series often up to 46.1 µM), inactives show at the highest dose activity, positive = more growth; hit rate 0.4% among 270,000; AID 2326, 2010; S. cerevisiae slowed by influenza A NS1, growth recovery by OD600; active means well fitted rising curve with a large enough effect; inconclusive means small, poorly fitted or top-dose-only effect; inactive means no such curve, though single readings can be large or run the other way; also: nearly all actives have a fitted effect of over 50% in size
#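 A cell-based growth assay was used: compounds that relieve NS1-induced slow growth of budding yeast raise OD600. Assay medium was yeast nitrogen base with ammonium sulphate and -URA supplement, pH 6.0, with 2% galactose.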
# Cruzain inh noDet: qHTS Assay for Promiscuous and Specific Inhibitors of Cruzain (without detergent); Cruzipain (Trypanosoma cruzi), P25779; purified cruzain, Z-FR-AMC fluorescence, no detergent; Potency, µM, inactives show max response, negative = inhibition, most hits filed as inhibitors; hit rate 2.3% among 200,000; AID 1476, 2009;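 also: plate controls were enzyme without inhibitor for no effect and buffer without enzyme for full effect; nearly all actives have a fitted effect of over 40% in size; top concentration of the series not given in the record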
#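 Purified cruzain at 1.5 nM, pre-incubated 15 min with compound at room temperature in 100 mM sodium acetate pH 5.5, 5 mM DTT, 0.00005% Triton X-100. Reaction started with 2 uM Z-FR-AMC; AMC fluorescence increase over 60 s gives rate.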
# LASV entry inh: qHTS for Inhibitors of binding or entry into cells for Lassa Virus | hit rate 1.2% among 300,000 | Lassa virus pseudotype entry inhibition, cell reporter; control for the full effect not named in the record | Potency, µM (top dose mostly 37.9 µM), for inactives: at the top dose activity change, negative = inhibition, usual class: inhibitors; active means well fitted inhibition curve with a large enough effect; inconclusive means small, poorly fitted or top-dose-only effect, or effect the other way; inactive means flat fitted curve, though single readings scatter; tested in HEK293 cells; also: % is scaled to controls: 0 for no effect and ±100 for the full control effect; nearly all actives have a fitted effect of over 50% in size; luciferase read-out
# * = called active by the depositor; ? = inconclusive; nt = no result given; & = joins results of further samples; [ ] = remark or other dose. Unless noted, calls follow the shape of the dose curve; as a rule, active = well fitted curve in the direction sought with a large enough effect; inconclusive = small, poorly fitted or top-dose-only effect, or another doubt; inactive = no such curve, though single readings can be large; an effect the other way counts as inactive or inconclusive. Potency is read from the fitted curve at half-maximal effect.
SMILES,RE007 growth inh,StopGo reporter,Cruzain Triton,SARS PLpro yeast,Marburg entry inh,NS1 function inh,Cruzain inh noDet,LASV entry inh
CCN(CC(=O)Nc1ccc(S(N)(=O)=O)cc1)S(=O)(=O)c1cc(C)ccc1OC,-5%,-21%,-1.3%,3%,-13%,-8%,3%,-13%
CCOP(=O)(OCC)C1(C(=O)O)CCCC1,-1%,2%,nt,0%,10%,7%,nt,-1%
Cc1cc(C(=O)COC(=O)CC2Sc3ccccc3NC2=O)c(C)n1-c1ccc(Br)cc1 (stereo not drawn),-18%,0%,1.9%,-2%,?,?,4µM*,?
Cc1ccc(CN2CCN(CC(=O)NCCCN3CCN(c4ccc(F)cc4)CC3)C2=O)cc1,-13%,?,3.4%,3%,-27%,18%,0%,-16%
CC1(C)N=C(N)NC(Nc2ccc(Br)cc2)=N1,26%,-20%,16µM*,-5%,-5%,7.9µM*,20µM*,9%
COC(=O)/C=C/C(=O)NCc1ccco1,14%,?,7.0%,5%,28%,-7%,9%,-6%
CC(=O)N1CCN(C(=S)c2ccc([N+](=O)[O-])cc2)CC1,6%,1%,-4.8%,10%,7%[46.1 µM],-1%,-5%,-8%
NNC(=O)C1CC(O)CN1S(=O)(=O)c1ccc(Cl)cc1 (stereo not drawn),33%,15%,nt,0%,16%[46.1 µM],nt,nt,?
O=C(COC(=O)Cc1ccccc1[N+](=O)[O-])NCc1ccccc1Cl,42%,-9%,-4.8%,3%,-1%,-7%,-2%,-24%
CCCC(C(=O)NCCC(C)C)N(Cc1ccc(OC)cc1)C(=O)c1snc(C(N)=O)c1N (stereo not drawn),2%,17%,nt,6%,nt,9%,nt,nt
C[N+]1(CC(=O)OCCCC2CCCCC2)CCCC1,-5%,-4%,nt,-1%,27%[46.1 µM],-2%,nt,21%
CCOC(=O)Cc1nnc2c(Nc3ccccc3F)nc3nonc3n12,-4%,?,0.8%,-23%,?,-37%,4%,?
Cc1ccc(C(=O)NCc2ccco2)cc1[N+](=O)[O-],3%,-5%,-4.2%,-2%,-17%,7%,0%,-1%
Cc1ccc(N2CCN(C(=S)Nc3ccccc3C)CC2)cc1,39%,1%,nt,0%,nt,?,nt,nt
CC1CC(=O)C2=C(C1)Nc1ccccc1N=C2 (stereo not drawn),-9%,-2%,1.8%,-2%,-2%,-5%,0%,-3%
COc1ccc(NS(=O)(=O)c2cccc(C(=O)N/N=C(\C)c3ccncc3)c2)cc1,-9%,-5%,-1.1%,19%,?,20%,-6%,24%
CN(Cc1ccccc1)C(=O)COC(=O)c1cc(=O)[nH]c2ccccc12,12%,25%,nt,-1%,8%,nt,nt,4%
Cc1cccc(C(=O)Nc2sc3c(c2C(=O)Nc2ccccc2)CCC3)c1,nt,-11%,-0.3%,nt,nt,nt,-6%,?
Cn1c(=O)n(CCN2CCOCC2)c(=O)c2c1nc1n2CCCN1c1ccccc1,nt,nt,0.0%,6%,-1%,-2%,-9%,nt
COCCCNCCOCCOc1ccc(C)cc1[N+](=O)[O-],-5%,-7%,-1.6%,-3%,?,-6%,-1%,3%
Cc1ccc(NC(=O)Cn2nc(C(F)(F)F)c3c2CCC3)cc1C,nt,-13%,-4.3%,nt,?,nt,-2%,-23%[46.1 µM]
CC(Nc1nc(N2CCN(CCO)CC2)nc2ccccc12)c1ccccc1 (stereo not drawn),-18%,-24%,nt,-2%,nt,nt,nt,?
CC1=C(C(=O)Nc2ccccc2C(=O)NCCCOC(C)C)SCCO1,11%,-18%,nt,1%,nt,-3%,nt,nt
COc1ccc(C(=O)Oc2ccc(/C=N/NC(=O)c3ccccc3OC)cc2[N+](=O)[O-])cc1,-3%,-15%,-3.4%,-3%,17%,-3%,?,5%
C/C(=N\Nc1ccc(Cl)c(C(=O)O)c1)c1cc2ccccc2o1,-3%,28%,nt,-6%,?,nt,nt,21%
N#Cc1cc([N+](=O)[O-])cnc1N(CCO)CCO,-1%,-13%,-7.8%,24%,15%,5%,-2%,16%
Cc1c(C(=O)Nc2cccc(-c3nc4ccccc4s3)c2)oc2ccccc12,nt,7%,-1.0%,nt,25%[46.1 µM],nt,5%,?
CCN(C(=O)c1cc2c(=O)n3cccc(C)c3nc2s1)c1ccc(C)c(C)c1,nt,?,-3.7%,nt,?,nt,0%,-28%[46.1 µM]
CN1CCN(S(=O)(=O)c2cccc(C(=O)Nc3cc(C(F)(F)F)ccc3N3CCCCC3)c2)CC1,-22%,0%,nt,1%,-12%,nt,nt,-22%
COc1ccc(NC(=O)c2ccc3nc[nH]c3c2)cc1,11%,76%[activator],nt,2%,nt,4%,nt,nt
COc1ccc(CCNC(=O)C(=O)NCC2OCCN2S(=O)(=O)c2cccs2)cc1 (stereo not drawn),-7%,0%,nt,-3%,7%,0%,nt,-12%
COn1c(-c2ccc(C)cc2)nc2ncccc21,-2%,15%,nt,0%,-2%[46.1 µM],-7%,nt,9%[46.1 µM]
COc1ccc(Oc2c(C)oc3cc(OC(=O)N4CCOCC4)ccc3c2=O)cc1,9%,-5%,4.4%,5%,1%&-3%,1%,10%,-2%
Cc1cc2c(=O)n(C)c(SCC(=O)Nc3ccc(F)cc3)nc2s1,7%,-12%,nt,nt,0%[46.1 µM],nt,nt,1%
COc1ccccc1NCCC(=O)OCC(=O)NC1CCCC(C)C1C (stereo not drawn),-4%,-11%,-4.0%,-3%,3%,-12%,0%,-1%
Cc1ccc(/C=N\NC(=O)/C(=C\Nc2nccc(C)n2)NC(=O)c2ccccc2)cc1,-2%,6%,nt,2%,-19%[46.1 µM],-26%,nt,-11%
COc1ccc(OC)c(C2CC(=O)c3c([nH]c(C(=O)OCC4CCCCC4)c3C)C2)c1 (stereo not drawn),nt,-6%,1.9%,nt,?,nt,-15%,?
O=C(NCC1(c2ccccc2)CCCC1)c1ccc(Br)cc1,13%,-12%,-2.1%,12%,1%,-7%,6%,2%
COc1cc(CN2CCC(Cc3ccccc3)CC2)cc(OC)c1OC,-18%,?,nt,15%,nt,3%,nt,nt
CC(C)(C)c1cc(C(=O)NNC(=O)c2ccc(Cl)cc2)no1,-1%,5%,nt,0%,-9%[46.1 µM],-6%,nt,11%
COc1ccccc1C(=O)Nc1ccc2nc(SCC(=O)N3CCCc4ccccc43)sc2c1,nt,-21%,-4.8%,nt,?,nt,-10%,?
CCOC(=O)C1=C(O)/C(=C/c2ccc(CNC(=O)C(=O)Nc3ccc(C)cc3)o2)N=C1C,1%,-16%,-21%,-7%,3%[46.1 µM],22%,26%,20%
COc1ccc(-n2cc(CNCc3cccnc3)c(-c3cccc(F)c3)n2)cc1,18%,30%,nt,-3%,?,1%,nt,10%
O=C1CCC(C(=O)N2CCN(c3ccccc3)CC2)CN1CC1CCCCC1 (stereo not drawn),-15%,1%,nt,-13%,-4%,-6%,nt,0%
Cc1ccc2oc3c(c(=O)c2c1)C(c1ccccc1F)N(CCCN(C)C)C3=O (stereo not drawn),nt,-8%,-4.0%,nt,?,nt,8%,-1%[46.1 µM]
COc1ccc(C(=O)Nc2nc(CC(=O)NCc3ccc(F)cc3)cs2)cc1,-15%,-9%,nt,13%,-12%,nt,nt,1%
CC(C)n1c(CN2CCN(C)CC2)nc2c1c(=O)n(C)c(=O)n2C,8%,-15%,nt,nt,-1%&-1%,-6%,nt,-11%
CC1(C)Cc2nc3oc4c(NCCCN5CCOCC5)ncnc4c3cc2CO1,-1%,28%,nt,2%,10%[46.1 µM],0%,nt,3%[46.1 µM]
Cc1cccn2c(=O)c3cc(C(=O)N4COCC4(C)C)n(Cc4ccccc4)c3nc12,-15%,-14%,nt,nt,12%[46.1 µM],nt,nt,6%
Cc1cc(C(C)(C)C)ccc1OCCCCN1CCCC1,21%,-1%,0.1%,-5%,?,7%,6%,?
# Carrying on.
SMILES,RE007 growth inh,StopGo reporter,Cruzain Triton,SARS PLpro yeast,Marburg entry inh,NS1 function inh,Cruzain inh noDet,LASV entry inh
Cn1c(=O)c2ncn(CC(=O)Nc3ccc(N4CCOCC4)cc3)c2n(C)c1=O,11%,-2%,2.5%,-6%,-12%,0%,-12%,-1%
O=[N+]([O-])c1cc2c(cc1/C=N/n1c(-c3ccccn3)n[nH]c1=S)OCO2,0%,-5%,-4.9%,-7%,13%,22%,-5%,1%
C/C(=N\OCC(=O)Nc1ccccc1C(C)(C)C)c1ccc2c(c1)OCCO2,3%,?,-4.5%,2%,3%,-16%,-1%,14%
Cn1cnnc1SCC(=O)Nc1ccc2nc(SCc3ccccc3)sc2c1,15%,2%,-7.8%,-1%,0%,-1%,?,-23%
O=C(Cn1ncc2c(=O)oc3ccccc3c21)N1CCN(c2ccc(Cl)cc2)CC1,nt,0%,-0.1%,nt,1%[46.1 µM],nt,-7%,31%[46.1 µM]
Cn1c(=O)c2c(-c3ccccc3)n3c(c2n(C)c1=O)C(c1cc(Cl)ccc1O)Nc1ccccc1-3 (stereo not drawn),nt,?,-5.1%,nt,?,nt,20%,-16%[46.1 µM]
CCOc1ccc(-c2nc(CSCC(=O)N3CCN(C(=O)c4ccco4)CC3)c(C)o2)cc1,-15%,0%,-12%,4%,-4%,-31%,?,nt
COc1ccc(C(=O)Nc2ccc(-c3nc4cc(C)ccc4o3)c(O)c2)cc1,nt,-21%,0.6%,nt,nt,nt,8%,-17%[46.1 µM]
CCOC(=O)C(Cc1ccccc1)C(=O)NCc1ccccc1 (stereo not drawn),3%,6%,nt,-2%,0%,-12%,nt,11%
CC(=O)c1cccc(CN2CCC(C(=O)Nc3cccc(-c4ccn[nH]4)c3)CC2)c1,-15%,32µM*,nt,8%,?,-2%,nt,3%
CCCCCCCN1C(Nc2ccccc2)=NC[C@@H]1CC(C)C,8%,?,nt,1%,nt,-39%,nt,nt
O=C1NC2(CCCC2)Oc2ccccc21,12%,-4%,nt,0%,17%[46.1 µM],nt,nt,16%
COc1ccc(CCN2CC(C(=O)NCc3ccco3)CC2=O)cc1OC (stereo not drawn),9%,0%,-10%,1%,-8%,3%,20%,17%
